PKM2 act – increases activity of human pyruvate kinase M2 | P14618 | purified PKM2, Kinase-Glo ATP luminescence, activation; response scale: 0% is enzyme alone, no compound | Potency, µM (doses to about 57.5 µM), for inactives: at the top dose activation, usual class: activators | 0.34% of 260,000 active; note: potency is the fitted concentration of half-maximal effect; % is set by controls: 0 for no effect and ±100 for the full control effect; nearly all actives have a fitted effect of over 55% in size
Target sequence (P14618 whole entry, looked up): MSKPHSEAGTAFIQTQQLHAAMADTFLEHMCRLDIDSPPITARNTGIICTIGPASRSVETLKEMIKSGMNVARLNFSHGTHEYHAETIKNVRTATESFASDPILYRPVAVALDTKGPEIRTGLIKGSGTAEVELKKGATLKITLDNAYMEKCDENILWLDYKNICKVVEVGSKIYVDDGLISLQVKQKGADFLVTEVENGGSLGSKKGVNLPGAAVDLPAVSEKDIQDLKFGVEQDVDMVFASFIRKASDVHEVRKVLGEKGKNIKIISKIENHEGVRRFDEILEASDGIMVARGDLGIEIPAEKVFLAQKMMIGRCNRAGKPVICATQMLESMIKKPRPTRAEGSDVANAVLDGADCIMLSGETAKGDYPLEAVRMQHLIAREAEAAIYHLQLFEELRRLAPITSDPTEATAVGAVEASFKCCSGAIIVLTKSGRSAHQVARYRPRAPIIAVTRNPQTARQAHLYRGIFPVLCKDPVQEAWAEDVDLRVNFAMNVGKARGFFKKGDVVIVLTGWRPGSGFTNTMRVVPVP
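Purified hPK-M2 (>95% pure) converted ADP (0.1 mM final) to ATP with 0.5 mM PEP in 50 mM imidazole pH7.2, KCl, MgCl2, Tween 20, BSA; 1 h at room temperature. ATP detected by Kinase-Glo luminescence.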
BRCA1 expr act – BRCA1 expression activation; Potency, µM (top dose mostly 46.1 µM), for inactives: top-dose activation, usual class: activators; MCF7-BRCA1-FFLuc reporter, luminescence, 48 h; response scale: scaled: vehicle 0%, 10 µM genistein 100%; 1.1% of 380,000 active; note: potency is the fitted concentration of half-maximal effect; nearly all actives have a fitted effect of over 80% in size; some results filed as inactive show a strong effect at the top dose
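MCF7-BRCA1-FFLuc, 2000 cells/well; 2 h attach, 37 °C/5% CO2; compound 48 h; luciferase substrate 15 min; luminescence end-point. Norm. to genistein 10 microM max activation and DMSO; concentration-response curves fitted.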
VP16 counter – counter-screen for ROR gamma inhibitors: Gal4-VP16 reporter | Drosophila S2 Gal4-VP16 UAS-luciferase, luminescence, 20 h | 3.5% of 310,000 active | AID 2546 | Potency, µM (series often up to 53.6 µM), without a hit: at the top dose activity, negative = inhibition, hits mostly inhibitors;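 note: Gal4-VP16 expression switched on by copper sulfate through the metallothionein promoter; potency is the fitted concentration of half-maximal effect; % is set by controls: 0 for no effect and ±100 for the full control effect; nearly all actives have a fitted effect of over 50% in size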
Rab9 prom act – activates the Rab9 promoter; AID 485297; 2.8% of 320,000 active; Huh7 Rab9 promoter-luciferase reporter, luminescence, 24 h; Potency, µM (top dose mostly 9.22 µM), for the others: top-dose activation, negative = inhibition, most hits filed as activators; note: potency is the fitted concentration of half-maximal effect; % of control where 0% means no effect; nearly all actives have a fitted effect of over 60% in size
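Measured in stably transfected Huh7 cells bearing a Rab9 promoter–luciferase construct: 24 h compound treatment at 37 °C, followed by luminescence detection.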
p53 reactivation – mutant p53 re-activation in reporter cells | H1299 p53-A138V BP100-luciferase reporter, luminescence, 24 h | Potency, µM (doses to about 92.2 µM), inactives show at the highest dose activity change, positive = activation, most hits filed as activators | 0.063% of 320,000 active | AID 504706; note: potency is the fitted concentration of half-maximal effect; % of control where 0% means no effect; nearly all actives have a fitted effect of over 45% in size
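H1299 (p53-null), stable ts p53-A138V + BP100-Luc; 1000 cells/well, Opti-MEM/10% FBS; cpd 4 pt, 1:5; 24 h, 37 deg C, 5% CO2; detection reagent 10 min RT; luminescence.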
Giardia killer – kills Giardia lamblia | Giardia lamblia trophozoite viability | AID 540267 | activity change, % at 7.66 µM, hits read low | 0.15% of 340,000 active; in the data active = activity change below about -80%; inconclusive = between about -30% and that limit;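 note: parasites exposed to compound for two days anaerobically before the ATP read; % is set by controls: 0 for no effect and ±100 for the full control effect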
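Anaerobic 48 hrs incubation at 37 deg C of 100 trophozoites/well with test compounds; ATPLite 1-Step luminescence, 15-30 min RT, reports cellular ATP as viability.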
NPC1 prom act – activates the NPC1 promoter; Huh7 NPC1 promoter luciferase reporter, 24 h; Potency, µM (doses to about 9.22 µM), inactives show top-dose activation, most hits filed as activators; 2.4% of 320,000 active;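 note: potency is the fitted concentration of half-maximal effect; % of control where 0% means no effect; nearly all actives have a fitted effect of over 60% in size; reporter is driven by a mutant NPC1 promoter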
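Compounds in DMSO were transferred onto Huh7 NPC1-luciferase reporter cells pre-incubated 2 h; after 24 h at 37 °C, Amplite reagent was dispensed and luminescence recorded 10 min later.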
ELG1 genotoxic – inducers of genotoxicity in HEK293T ELG1-luciferase cells; HEK293T ELG1-luciferase reporter, luminescence, 16 h; Potency, µM (doses to about 46 µM), inactives show at the top dose activity change, positive = activation, actives largely listed as activators; 1.3% of 330,000 active; note: potency is the fitted concentration of half-maximal effect; % of control where 0% means no effect; nearly all actives have a fitted effect of over 60% in size
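Reporter readout depends on ELG1 protein level, which increases with genetic stress. After 16 hr compound exposure at 37 °C, luciferase activity was quantified using ONE-Glo.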
RORg inh – blocks mouse ROR gamma transcriptional activity | P51450 | Potency, µM (highest dose often 53.6 µM), inactives show at the highest dose activity change, negative = inhibition, most hits filed as inhibitors | Drosophila S2 Gal4-RORgamma UAS-luciferase reporter, 20 h | 5.4% of 310,000 active; note: potency is the fitted concentration of half-maximal effect; % is set by controls: 0 for no effect and ±100 for the full control effect; nearly all actives have a fitted effect of over 60% in size
Target sequence (P51450 whole entry, looked up, the tested form may be a part): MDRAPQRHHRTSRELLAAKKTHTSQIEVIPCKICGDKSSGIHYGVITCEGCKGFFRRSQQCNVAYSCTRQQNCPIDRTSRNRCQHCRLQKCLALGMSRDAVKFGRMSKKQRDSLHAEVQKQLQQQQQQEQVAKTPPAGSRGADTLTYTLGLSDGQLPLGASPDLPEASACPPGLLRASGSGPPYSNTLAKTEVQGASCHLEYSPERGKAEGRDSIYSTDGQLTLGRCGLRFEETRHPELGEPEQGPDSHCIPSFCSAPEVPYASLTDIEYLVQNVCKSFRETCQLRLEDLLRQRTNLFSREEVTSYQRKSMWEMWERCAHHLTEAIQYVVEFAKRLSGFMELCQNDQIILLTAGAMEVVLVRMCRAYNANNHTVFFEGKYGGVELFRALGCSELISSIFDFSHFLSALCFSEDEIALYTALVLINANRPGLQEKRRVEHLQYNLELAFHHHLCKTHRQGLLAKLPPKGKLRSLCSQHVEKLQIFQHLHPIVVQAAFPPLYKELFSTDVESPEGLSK
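A Gal4/UAS one-hybrid system in insect cells: metallothionein-promoter Gal4–ROR gamma fusion plus Photinus luciferase reporter. Copper sulfate 700 uM final, 20 hr ambient incubation, luminescent detection after 10 min with reagent.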
FLuc modulator – firefly luciferase modulation, counter-screen for miR-21 project. P08659. purified FLuc, Km substrates, luminescence inhibition. Potency, µM (top dose mostly 57.5 µM), for inactives: at the highest dose activity change, negative = inhibition, actives largely listed as inhibitors. 6.9% of 360,000 active;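 note: potency is the fitted concentration of half-maximal effect; plate controls were vehicle for no effect and reference inhibitor for full effect; nearly all actives have a fitted effect of over 55% in size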
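Purified P. pyralis luciferase (10nM final) with 10uM D-luciferin and 10uM ATP (Km levels) in 50mM Tris acetate pH 7.5, 10mM Mg acetate, 0.01% Tween-20, 0.05% BSA; qHTS 6-point titration, ~60 µM downward; luminescence read.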
* hit, by the source's call; ? = inconclusive; . = not tested or not shown; & = joins results of further samples; [ ] = dose if it differs, or a comment. Unless noted, calls come from the whole dose curve; as a rule, active = well fitted curve in the direction sought with a large enough effect; inconclusive = small, poorly fitted or top-dose-only effect, or another doubt; inactive = no such curve, though single readings can be large; an effect the other way counts as inactive or inconclusive. These rows are one share of the data; count on the stated rates, not on these rows.

Structure,PKM2 act,BRCA1 expr act,VP16 counter,Rab9 prom act,p53 reactivation,Giardia killer,NPC1 prom act,ELG1 genotoxic,RORg inh,FLuc modulator
CCN(c1ccc(NC(=O)COC(=O)CCC(=O)c2ccc(F)cc2)cc1)C(C)C,1%,4%,3%,7%,0%,5,1%,1%,5%,?
CCC(NS(=O)(=O)c1ccc2c(c1)NC(=O)C(C)C(=O)N2)c1cccs1 (centres undefined),-2%,-10%,11%,7%,.,-3,2%,1%,1%,1%
COc1cc2c(cc1OC)C1(CCCC1)CNC2c1ccc([N+](=O)[O-])cc1 (centres undefined),4%,-22%,8%,-2%,-2%,5,-3%,-10%,-6%,-3%
COc1ccc(C(=O)NCCSc2ccccc2)cc1,-10%,7%,?,0.35µM*,?,9,0.35µM*,2.6µM*,11µM*,1.5µM*
Cc1nc(NC(=O)Nc2ccc(Cl)cc2)sc1C,1%,5.6µM*,?,3.2µM*,19%,-8,12%,10%,25%,?
Cc1ccc(C(=O)NC(=S)Nc2cc(-c3nc4ccccc4s3)ccc2C)cc1,-6%,-19%,-15%,29%,21%,-16,-3%,?,-28%,9.5µM*
CCCCNc1nc(-c2ccccc2)c(C(=O)OCC)cc1C#N,-2%,-78%[inhibitor],0%,1%,4%,-4,-8%,-5%,24%,5%
CC(/C=N/NC(=O)CSc1nnc(SCc2ccccc2)s1)=C\c1ccco1,?,11%,?,3%,2%,6,-1%,2%,8%,21µM*
CC1CCCC(NC(=O)CCCn2c(=S)[nH]c3ccccc3c2=O)C1C (centres undefined),10%,-15%,-10%[10 µM],-8%,-2%,15,-4%,-7%,10µM*,-1%
CN(CC(=O)Nc1sc2c(c1C#N)CCCCC2)Cc1nc2ccccc2c(=O)[nH]1,3%,-14%,-4%,-6%,-1%,-2,-7%,-10%,13µM*,-17%
CCN(CC)CCCNC(=O)c1cc(-c2ccccc2)c(N2CCCCC2)s1,.,-52%,1%,-3%,0%,-1,-3%,0%,-22%,0%
COc1ccc(NC(=O)C(=O)Nc2cccc3cccnc23)c(OC)c1,0%,-10%,2.5µM*,-1%,-1%,-5,2%,2%,1.4µM*,2%
O=C(NC1CC1)c1ccc2c3c(cccc13)CC2,-5%,-9%,5%,-13%,2%,-12,-5%,4%,-10%,-1%
Cc1cccc(NC(=O)Cn2nnc(C(=O)NCc3ccco3)c2N)c1,-6%,1%&5%,-1%,-14%,-3%,-6,-1%,-1%,25%,-1%&-5%
O=C1c2oc3ccccc3c(=O)c2C(c2ccc(O)cc2)N1c1nccs1 (centres undefined),-5%,-6%,9%,-4%,0%,-5,-6%,7%,-13%,2%
Nc1nonc1-n1nnc(C(=O)N/N=C/c2ccco2)c1CSc1ccccc1,1%,8%,-5%,1%,5%,3,-1%,-1%,?,2%
COc1cc2c(cc1OC)CN(C(=O)CCCN1C(=O)c3ccccc3C1=O)CC2,3%,6%,11%,-7%,-1%,-11,20%,0%,9%,-1%
Cc1onc(-c2ccccc2)c1C(=O)NC(=S)Nc1sc2c(c1C#N)CCCC2,1%,11%,-88%,-1%,-2%,8,-5%,0%,3.5µM*,?
O=C(COC(=O)CN=C1NS(=O)(=O)c2ccccc21)Nc1ccccc1OC(F)F,0%,5%,-8%,5%,4%,-3,5%,4%,-7%,4%
CCCS(=O)(=O)N1CCC(C(=O)NCCCN(CC)c2cccc(C)c2)CC1,0%,0%,0%,2%,-1%,-3,-2%,-2%,-35%,0%
CCN1CCN(c2nc(S(=O)(=O)c3ccc(C)cc3)c(Cl)s2)CC1,0%,-8%,-8%,-6%,29%,-4,-5%,-3%,20%,5%
CC(Oc1ccc(-c2ccccc2)c(F)c1)c1ccn(S(=O)(=O)c2ccc(F)cc2)n1 (centres undefined),4%,-39%,-1%,0%,14%,-19,2%,11%,?,0%
CCn1c(C)nc2cc(C(=O)N/N=C(\C)c3ccc(N4CCOCC4)cc3)ccc21,7%,9%,?,-8%,14%,-5,-5%,0%,-27%,-1%
CC(C)c1cc(C(=O)Nc2cc(Br)ccc2O)no1,1%,50%,20%,?,?,9,24%,?,?,?
O=c1c2ccccc2nc(-c2ccccc2)n1Cc1ccc(Cl)cc1,-2%,-4%,12%,-6%,1%,0,-3%,-2%,?,5%
Cc1nc(NC(C)C)c2oc3ccccc3c2n1,4%,-15%,?,-6%,-12%,4,-3%,-6%,-25%,-6%
CCC(=O)N1C(C(=O)N2CCCC2)CSC1c1ccc(OC)cc1 (centres undefined),0%,-3%,-2%,-4%,6%,15,-4%,1%,-20%,-2%
CN(C)CCCNc1nc(N)c([N+](=O)[O-])c(NC2CCCCC2)n1,.,-19%,-1%,3%,-7%,10,-3%,1%,3%,5%
Cc1cccc(C)c1NC(=O)Cn1nc(-c2ccccc2)nc1-c1ccccc1,-10%,-16%,-4%,5%,3%,0,-3%,4%,23%,-3%
Cc1ccc(Cl)c(OCC(=O)Nc2ccc3c(c2)OCCO3)c1,-12%,46%,-19%,1.4µM*,6%,-1,2.8µM*,14%,-32%,1.9µM*
O=C(CSc1ncnc2c1cnn2-c1ccc(F)cc1)NCc1ccc2c(c1)OCO2,-20%,-12%,-2%,-3%,17%,15,1%,-2%,-2%,-6%
CC(NC(=O)COC(=O)c1ccc(N(C)C)cc1)c1ccccc1 (centres undefined),?,13%,5%,-5%,-6%,-12,-3%,-7%,7%,-8%
Cc1c(C(=O)Nc2nccs2)sc2nc(-c3cccs3)cc(C(F)(F)F)c12,-4%,-93%[inhibitor],3.2µM*,-5%,-6%,-6,-1%,-8%,0.79µM*,-1%
COc1ccc(NC(=O)c2ccccc2SC)cc1,-3%,79%,-21%,2%,-1%,3,2%,?,0%,?
CCOC(=O)c1cc(C#N)c(Oc2cccc(C(F)(F)F)c2)nc1-c1ccccc1,-17%,-57%,-6%,-3%,5%,-13,0%,-5%,40%,-9%
CC(NC(=O)COC(=O)CC(c1ccccc1)c1ccccc1)c1ccccc1 (centres undefined),9%,3%,-4%,0%,0%,-19,-1%,-3%,-6%,12%
COc1ccc(/C=N/N=C(\N)c2nonc2N)cc1OC,-3%,?,5%,?,15%,-6,?,0%,0%,?
CCCCNC(=O)c1onc(CCl)c1C(=O)OC,-10%,-62%,-13%,8%,-10%,-3,-1%,4%,-19%,0%
Cc1cccc2cc(CN(Cc3ccco3)C(=O)c3ccncc3)c(=O)[nH]c12,?,-3%,-2%,-6%,-11%,14,-4%,-18%,-34%,1%
O=C(CCCCCn1c(=O)[nH]c2ccccc2c1=O)NCCCN1CCN(c2ccccc2F)CC1,-3%,-58%,-25%,-4%,-1%,-6,-3%,-13%,-17%,1%
Nc1nc(NCC(=O)O)nc(NC2CCCCC2)c1[N+](=O)[O-],.,-12%,1%,-4%,1%,26,2%,1%,14%,2%
CC(=O)N1CCc2cc(C(=O)CN3CCC(C)CC3)ccc21,0%,-22%,8%,4%,-2%,5,-2%,6%,18%,0%
COc1cc2c(cc1OC)C1(CCCC1)CNC2C (centres undefined),6%,13%,0%,2%,-8%,3,-3%,-8%,0%,0%
CC1(C)C2CCC1(C)C(NC(=O)/C=C/c1ccccc1)C2 (centres undefined),4%,5%,18µM*,2%,18%,23,-2%,7%,?,?
CCOc1cccc(/C=C2/NC(=O)N(CC(=O)Nc3cccc(C)c3)C2=O)c1O,-9%,-5%,2%[10 µM],-7%,-2%,51[activator],-8%,1%,-3%,-8%
CCc1ccccc1NC(=O)Nc1cc(F)ccc1F,-2%,1%,?,0%,-1%,14,-4%,4%,-34%,?
NS(=O)(=O)c1ccc(N/C=C\C(=O)c2ccc3ccccc3c2)cc1,9%,0%,?,3%,2%,-3,7%,4%,0%,2%
COc1ccc(CNCCC(c2ccc(OC(C)C)cc2)c2ccccc2OC)cc1OC (centres undefined),.,-66%,3%,-5%[1.84 µM],-1%,-5,-5%,-13%,-7%,-1%

Part of the list above, with two lines to a compound.
Fields: PKM2 act | BRCA1 expr act | VP16 counter | Rab9 prom act | p53 reactivation | Giardia killer | NPC1 prom act | ELG1 genotoxic | RORg inh | FLuc modulator
Cc1ccc(Cl)c(OCC(=O)Nc2ccc3c(c2)OCCO3)c1
→ -12% | 46% | -19% | 1.4µM* | 6% | -1 | 2.8µM* | 14% | -32% | 1.9µM*
O=C(CSc1ncnc2c1cnn2-c1ccc(F)cc1)NCc1ccc2c(c1)OCO2
→ -20% | -12% | -2% | -3% | 17% | 15 | 1% | -2% | -2% | -6%
